Compound activity as filed in PubChem.
HPGD block = blocks human HPGD enzyme activity; P15428; AID 894; purified HPGD, NADH fluorescence kinetic, PGE2 substrate; Potency, µM, for inactives: top-dose activity change, negative = inhibition, usual class: inhibitors; actives 4.3% (n = 150,000); active = well fitted inhibition curve with a large enough effect (not every such curve was filed as active); inconclusive = small, poorly fitted or top-dose-only effect, or another doubt; inactive = no such curve, though single readings can be large or run the other way;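 further: top concentration of the series not given in the record; plate controls included wells without enzyme; inactives centre near -10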
Target sequence (P15428 whole entry, looked up): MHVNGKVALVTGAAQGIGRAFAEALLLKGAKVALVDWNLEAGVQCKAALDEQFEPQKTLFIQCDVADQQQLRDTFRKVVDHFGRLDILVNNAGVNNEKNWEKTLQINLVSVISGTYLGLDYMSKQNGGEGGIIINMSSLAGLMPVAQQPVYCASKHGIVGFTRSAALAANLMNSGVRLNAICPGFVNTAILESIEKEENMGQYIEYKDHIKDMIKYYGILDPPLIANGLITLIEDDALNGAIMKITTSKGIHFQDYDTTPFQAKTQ
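NADH formation kinetics: reaction with 30 uM PGE2 and 1 mM NAD+ (final), 20 nM enzyme, Tris-HCl pH 8 with Tween 20, after 15 min compound preincubation at room temperature. Fluorescence change, last versus first of five reads.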
* marks the source's active call; other numbers are inactive results; ? = inconclusive. On the % scale 0 is the no-effect control and ±100 the full control effect; potency means the concentration at half of the fitted maximal effect. An excerpt; the hit share may differ from the screen's.

nr | SMILES | HPGD block
1 | O=S(=O)(c1cnccc1N1CCN(/N=C/c2ccc(Br)cc2)CC1)N1CCCCC1 | -16.6%
2 | Cc1c(N2C(=O)CS/C2=N\N=C\c2ccccc2O)c(=O)n(-c2ccccc2)n1C | -28.6%
3 | COc1ccccc1C1/C(=C(/O)c2ccccc2)C(=O)C(=O)N1CC(C)O (configuration not stated) | -7.9%
4 | Cc1ccc2sc3ccc(NC(=O)c4ccccc4Cl)cc3c(=O)c2c1 | ?
5 | COc1ccc(/C=C/c2cc(O)cc(O[C@H]3OC(CO)C(O)C(O)C3O)c2)cc1 (some centres not stated) | -23.3%
6 | N/C(=N\OC(=O)Cc1ccc(Cl)cc1)c1ccccn1 | -1.2%
7 | O=C(NCc1ccccn1)c1ccc(CS(=O)(=O)Cc2ccc(Cl)cc2)o1 | -4.9%
8 | CCOc1ccc(C2NC(=O)C(C#N)=C(S)N2c2ccc(C)cc2)cc1OC (configuration not stated) | -3.1%
9 | O=C(Nc1ccc2c(c1)OCCO2)c1ccc(Cl)c(S(=O)(=O)N2CCCCC2)c1 | -21.9%
10 | Cc1ccc(/C=C/C2=NN(Cc3ccccc3Cl)C(=O)CC2)cc1 | ?
11 | COc1ccc(S(=O)(=O)Nc2ccc3c(c2)OCO3)cc1C(=O)O | -16.4%
12 | CCOC(=O)C1CCCN(C(=O)c2ccco2)C1 (configuration not stated) | -2.6%
13 | COc1ccc(-n2ncc3c(Nc4cccc(C)c4)ncnc32)cc1 | -20.2%
14 | C/C(=N\OC(=O)c1ccccc1)c1cc(-c2ccc(Cl)cc2)no1 | -5.6%
15 | S=C(Nc1ccc(Cl)cc1Cl)NC1CCN(Cc2ccccc2)CC1 | -4.1%
16 | O=S(=O)(N[C@@H]1C[C@H]2CC[C@@H]1C2)c1cccs1 | -11.3%
17 | C/C(=N\N=c1/scc(C)n1Cc1ccco1)c1cccc([N+](=O)[O-])c1 | -13.3%
18 | COc1ccc(Nc2nc(OC)nc(N3CCN(c4ccc(OC)cc4)CC3)n2)cc1 | -2.1%
19 | N#Cc1ccc(CN2CC[C@@]3(CCCN(S(=O)(=O)c4ccccc4)C3)C2)cc1 | -5.7%
20 | CC1(C)Oc2ccc3ccc(=O)oc3c2/C(=C/NCCO)C1=O | -18.4%
21 | O=C(N[C@@H](Cc1ccccc1)C(=O)O)c1cccnc1 | 3.3%
22 | O=C(COC(=O)c1cc(-c2cccs2)nn1-c1ccccc1)Nc1cccc([N+](=O)[O-])c1 | -24.7%
23 | COc1c(C(=O)Nc2ccc(Cc3ccncc3)cc2)ccc2ccccc12 | -29.4%
24 | O=c1c2ccccc2nc(/C=C/c2ccccc2)n1CCc1ccccc1 | -12.2%
25 | Cc1ccc(N2C(=O)/C(=C\c3ccc(C(C)C)cc3)N=C2SC2CCOC2=O)cc1 (configuration not stated) | ?

Part of the list above, reformatted.
(3) COc1ccccc1C1/C(=C(/O)c2ccccc2)C(=O)C(=O)N1CC(C)O (configuration not stated)
- HPGD block: -7.9%

(4) Cc1ccc2sc3ccc(NC(=O)c4ccccc4Cl)cc3c(=O)c2c1
- HPGD block: ?

(5) COc1ccc(/C=C/c2cc(O)cc(O[C@H]3OC(CO)C(O)C(O)C3O)c2)cc1 (some centres not stated)
- HPGD block: -23.3%

(6) N/C(=N\OC(=O)Cc1ccc(Cl)cc1)c1ccccn1
- HPGD block: -1.2%

The listing continues:
nr | SMILES | HPGD block
26 | Cc1cc([N+](=O)[O-])nn1CC(=O)N1c2ccccc2CC1C (configuration not stated) | -0.6%
27 | CSc1ccc(NC(=O)N2CC=C(n3c(=O)[nH]c4ccccc43)CC2)cc1 | -5.1%
28 | CCCCOc1ccccc1C1NC(=O)NC(C)=C1C(=O)OCCOCC (configuration not stated) | -1.8%
29 | COc1ccc2cc(-c3cc(C(=O)OCC(=O)Nc4c(C)n(C)n(-c5ccccc5)c4=O)c4ccccc4n3)ccc2c1 | -30.0%
30 | OC(COc1ccc2c(c1)CCC2)CN1CCN(c2ccccc2F)CC1 (configuration not stated) | -14.5%
31 | COC(=O)CC#N | -5.8%
32 | CC(=O)Nc1ccc(NC(=O)CSc2ccccn2)cc1 | -23.9%
33 | COc1ccc([N+](=O)[O-])cc1NC(=O)c1cn(-c2ccc(Cl)cc2)c(=O)c2ccccc12 | -4.6%
34 | COc1ccc(NC(=O)CCSc2ccc3ccccc3n2)cc1 | -11.7%
35 | Cc1c(C(=S)Nc2ccccc2)cnn1-c1ccc([N+](=O)[O-])cc1 | -22.4%
36 | CCN(CC)CCCCCCCCOC(=O)c1cc(OC)c(OC)c(OC)c1 | -14.8%
37 | Cc1cc2cc(CN(CC3CCCO3)C(=O)c3cnccn3)c(=O)[nH]c2cc1C (configuration not stated) | -11.8%
38 | O=C(CN1CCN(c2ccccn2)CC1)N1c2ccccc2CCc2ccccc21 | -0.1%
39 | CCOCCCNC(=O)/C(C#N)=C/c1ccc(-c2ccc(S(=O)(=O)N3CCOCC3)cc2)o1 | ?
40 | CCC(C(=O)Nc1nc(C)cs1)c1ccccc1 (configuration not stated) | -8.9%
41 | CCOc1cc2c(cc1OCC)C(C(=O)O)C(c1ccc(OC)c(O)c1)N(C)C2=O (configuration not stated) | -12.4%
42 | O=C(CSc1ncnc2c1nnn2-c1ccc(F)cc1)NCc1ccco1 | -16.8%
43 | CCOC(=O)c1cc(-c2ccc(C)o2)nn1CCC#N | -5.0%
44 | CCOc1ccc(Br)cc1-c1noc(-c2cccs2)n1 | -0.6%
45 | C#C[C@@]1(O)CC[C@@H]2[C@@H]3CCC4=CC(=O)CC[C@@H]4[C@H]3CC[C@]21C | -6.7%
46 | CCC1(CC)C(=O)C(C)(C)C(=O)OC1c1ccccn1 (configuration not stated) | -16.6%
47 | CN(C)CCCCCNCCCNC(=O)/C=N\O | -0.1%
48 | Cc1cc(C)nc(NCC(O)COc2ccccc2C)n1 (configuration not stated) | -6.9%
49 | COc1cccc(Oc2ccc(C(F)(F)F)cc2N)c1 | -7.6%
50 | C=C(C)c1cccc(C(C)(C)NC(=O)Nc2ccccc2OCC)c1 | -0.1%

Four of the compounds above, as labelled records.
(42) O=C(CSc1ncnc2c1nnn2-c1ccc(F)cc1)NCc1ccco1
  HPGD block: -16.8%
(34) COc1ccc(NC(=O)CCSc2ccc3ccccc3n2)cc1
  HPGD block: -11.7%
(36) CCN(CC)CCCCCCCCOC(=O)c1cc(OC)c(OC)c(OC)c1
  HPGD block: -14.8%
(47) CN(C)CCCCCNCCCNC(=O)/C=N\O
  HPGD block: -0.1%

Next records.
nr | SMILES | HPGD block
51 | Cc1cc(-c2ccc(N=Nc3ccc4c(S(=O)(=O)O)cc(S(=O)(=O)O)c(N)c4c3O)c(C)c2)ccc1N=Nc1ccc2c(S(=O)(=O)O)cc(S(=O)(=O)O)c(N)c2c1O | 5.01µM*
52 | Cc1ccc(NC(=S)NC(NC(=O)c2ccccc2C)C(Cl)(Cl)Cl)c(C)c1 (configuration not stated) | -6.9%
53 | CCN(CC)C(=O)C(=O)Nc1cc(C(F)(F)F)ccc1Cl | 2.9%
54 | COc1cc(OC)cc(-c2nnc(SCc3cccnc3)o2)c1 | -26.9%
55 | COc1ccccc1/C=C\C=N\n1c(-c2ccc(Cl)cc2Cl)n[nH]c1=S | 3.98µM*
56 | O=C(Nc1ccc2nc(C3CC3)n(Cc3ccc(F)cc3)c(=O)c2c1)c1ccco1 | -28.5%
57 | O=C(NNS(=O)(=O)c1ccc(Cl)cc1)NC1CCCCC1 | -0.6%
58 | C=CCNC(=O)c1cc(Cl)ccc1[N+](=O)[O-] | -10.3%
59 | CCn1c(C)nc2cc(C(=O)NNC(=O)CCC3CCCCC3)ccc21 | -7.0%
60 | COc1cccc(/C=N/NC(=O)CN2CC(c3ccccc3)CC2=O)c1OC (configuration not stated) | ?
61 | COc1ccc(C2C(C(=O)N3CCC(C)CC3)c3ccccc3C(=O)N2C)cc1 (configuration not stated) | -6.1%
62 | COC(=O)c1ccc2c(c1)NC1=C(C(=O)CC(C)(C)C1)C(c1ccncc1)N2 (configuration not stated) | -12.9%
63 | COc1ccc(-c2c(C(C)=O)c(C)n(C)c2C)cc1 | -4.7%
64 | Cc1nc2c(C)cccn2c1C(=O)c1ccccc1 | -16.0%
65 | O=C(NCCCn1ccnc1)c1cccc(S(=O)(=O)Nc2ccccc2F)c1 | 1.8%
66 | Cc1ccc(OCC(=O)c2cc(C)c(C)cc2C)c([N+](=O)[O-])n1 | -20.0%
67 | N#CCC(=O)Nc1ccccc1C(=O)O | -12.9%
68 | Cc1ccccc1NC(=O)CCn1c(=O)oc2ccccc21 | -7.8%
69 | Cc1ccc(N=C2SC(C(=O)Nc3ccc(OC(F)(F)F)cc3)C(N)=C2C(=O)Nc2c(C)cc(C)cc2C)cc1 (configuration not stated) | ?
70 | Cc1c(NC(=O)CC(=O)Nc2c(C)n(C)n(-c3ccccc3)c2=O)c(=O)n(-c2ccccc2)n1C | 5.0%
71 | CCn1c(C(O)c2cccc(OC)c2OC)nc2ccccc21 (configuration not stated) | -7.2%
72 | Cc1cc(O)cc(O)c1C=NCc1ccco1 | -6.7%
73 | COc1ccc(OCc2nc3c4cc(OC)c(OC)cc4nc(=S)n3[nH]2)cc1 | ?
74 | Cc1cccc(N2CCN(c3cc(C)nc4nnnn34)CC2C)c1 (configuration not stated) | -27.5%
75 | O=C(CCc1ccc(S(=O)(=O)NC2CCCCC2)cc1)NCc1ccccc1 | -9.5%

Later entries
nr | SMILES | HPGD block
76 | Clc1cccc(Cl)c1CSc1nnc(-c2sccc2-n2cccc2)o1 | -23.7%
77 | COc1ccc(OC)c2sc(NC(=O)c3ccc(S(=O)(=O)N4CCOCC4)cc3)nc12 | -21.4%
78 | Cc1ncc(COP(=O)(O)O)c(C)c1O | 1.0%
79 | CCOP(=O)(OCC)C(Nc1ccccn1)c1ccc(F)cc1 (configuration not stated) | -6.2%
80 | Cc1ccc(-c2noc(CN(C(=O)c3cccs3)C(C)C)n2)cc1 | -10.3%
81 | NNC(=O)[C@H]1C[C@@H]1c1ccccc1 | -8.3%
82 | CCOC(=O)N1CCN(C(=O)c2ccc3c(=O)n(CCc4ccccc4)c(=O)[nH]c3c2)CC1 | -7.7%
83 | Cc1cccc(C2=NN(c3ccc(Br)cc3)[C@@H](C(=O)N3CCOC3=O)[C@@H]2c2ccc(Cl)cc2)c1 | ?
84 | Cc1cc(NC(=O)CCN2C(=O)C3C4C=CC(C4)C3C2=O)c2ccccc2n1 (configuration not stated) | -4.8%
85 | Clc1cc(Cl)c2nc(N3CCCCC3)sc2c1 | 22.4µM*
86 | COc1ccc(/C(N)=N/OC(=O)Cc2cccs2)cc1 | -11.3%
87 | COc1ccc(C(=O)N2CCC3(CC2)CCN(c2cccc(-c4ccccc4)c2)CC3)cc1 | -25.2%
88 | O=C(Nc1ccccn1)c1ccco1 | -4.6%
89 | COc1ccccc1NC(=O)/C(C#N)=C/c1c(C)nn(-c2ccc(F)cc2)c1Cl | 0.2%
90 | CCOc1cc(/C=N/NC(=S)Nc2ccccc2C(F)(F)F)ccc1OCC(=O)N1CCOCC1 | ?
91 | Cc1cc(NC(=O)c2cc3n(n2)C(C(F)(F)F)CC(c2ccco2)N3)n(-c2ccccc2)n1 (configuration not stated) | -9.7%
92 | CCn1c(SCC(=O)N2CCCc3ccccc32)nnc1-c1cccs1 | -1.5%
93 | O=C(O)c1cccc(S(=O)(=O)Nc2ccc(O)cc2Sc2nc3ccccc3s2)c1 | 10µM*
94 | Cc1ccc(N2CC(C(=O)Nc3cccnc3)CC2=O)cc1 (configuration not stated) | 4.5%
95 | Cc1ccc(NC(=O)CN(c2cc(C)cc(C)c2)S(=O)(=O)c2c(C)noc2C)nc1 | -12.7%
96 | CCOc1ccc(N(C(=O)Nc2ccccc2)C2=NCCC2)cc1 | -3.5%
97 | CN(C)S(=O)(=O)c1cccc(NC(=O)c2cc(-c3cccs3)nc3ccccc23)c1 | ?
98 | CCCCCn1c(CCNC(=O)CCC)nc2ccccc21 | 0.3%
99 | COc1ccc2c(c1)CCCC21NC(=O)N(CC(N)=O)C1=O (configuration not stated) | -4.0%
100 | Cn1nc(C(C)(C)C)c([N+](=O)[O-])c1C(=O)NC(C)(C)C | -6.3%

Next part.
nr | SMILES | HPGD block
101 | c1ccc(-c2nc3ccccc3nc2N2CCOCC2)cc1 | -11.3%
102 | COc1cccc(/C(C)=N/Nc2ncc(Cl)cc2Cl)c1 | 3.0%
103 | O=C(N=Nc1c(O)[nH]c2ccccc12)c1ccccc1NS(=O)(=O)c1cccs1 | -24.1%
104 | CCOc1ccc(C(C)=O)cc1Cc1c(O)nc(N)[nH]c1=O | -4.2%
105 | O=c1c2ccccc2n2c(-c3ccc(F)cc3)nnc2n1Cc1ccccc1 | -9.0%
106 | O=C1CN(S(=O)(=O)c2ccccc2)CCN1S(=O)(=O)c1ccccc1 | -10.4%
107 | CC(=O)c1cc(-c2ccccc2)n(CC(=O)Nc2cccc(C)c2C)c1C | -5.3%
108 | Cc1ccc(S(=O)(=O)Oc2cc(N)c3c(n2)CCC3)cc1 | -2.1%
109 | O=C(N/N=C/c1ccc(OC(=O)c2cccs2)cc1)c1cccc(F)c1 | -3.1%
110 | CO[C@@H](NC(N)=O)C(=O)O | -6.1%
111 | O=C(Nc1ccc2c(c1)ncn2C1CCCCC1)c1ccco1 | -13.8%
112 | Cc1ccc(C(=O)CCC(=O)Nc2cccnc2)cc1C | -7.6%
113 | CCC/C(O)=C1\C(=O)CC(c2ccccc2)CC1=NCCc1c(C)[nH]c2ccc(C)cc12 (configuration not stated) | -10.7%
114 | CC(=O)N1C(C)c2ccccc2C(C)(C)CC12CCCCC2 (configuration not stated) | -6.9%
115 | CCOc1ccccc1NC(=O)C(=O)/C=C(\O)c1cc(OC)ccc1OC | -13.4%
116 | Cc1c(C(=O)N(C)C)sc(NC(=O)c2cc([N+](=O)[O-])cc([N+](=O)[O-])c2)c1C#N | ?
117 | CC(=O)Nc1ccccc1-c1ccc(C)o1 | -15.7%
118 | OC(CNCc1ccc(F)cc1)(c1ccccc1)c1ccc(F)cc1 (configuration not stated) | -0.5%
